AID504770: growth inhibitors of E. coli YBA685 in a screen for V. cholerae RctB (chromosome II replication) inhibitors. 0.27% of 130,000 active. E. coli YBA685 rctB-dependent plasmid, OD600 growth, 3 h; active compounds read low. z-score (concentration not given with the values). AID 504770;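 active = z-score under -2 on both plates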;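 note: wells of about 30 µL received 100 nL stock; score is relative to mean and SD of the test wells; the first replicate is given; strong numbers were not always called active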
Ba CapD inh: blocks the Bacillus anthracis CapD enzyme; purified CapD enzyme, fluorescence intensity read-out; active compounds read low; some hits fall short of the stated cut; z-score (test concentration not listed); 0.23% of 140,000 active; AID 492967;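 active = z-score under -4 in either of two replicates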;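 note: stock transfer was 100 nL into about 40 µL; score is relative to mean and spread of the plate; one replicate is shown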
Numbers without * were called inactive.

CCc1ccc(S(=O)(=O)N(C)C2CCS(=O)(=O)C2)cc1 (configuration not stated) was read as AID504770 -0.55.
Screening Cc1cccc(Nc2nc3nonc3nc2N2CCCCC2)c1C returned Ba CapD inh -0.71.
For O=CN1CCN(C(=O)CCC(=O)N2CCC(N(C3CC3)S(=O)(=O)c3cccc(C(F)(F)F)c3)CC2)CC1 the results were Ba CapD inh -0.045.
`COc1ccc(OC)c(C2C(N3C(=O)c4c(Cl)c(Cl)c(Cl)c(Cl)c4C3=O)C(=O)N2c2cccc(C(F)(F)F)c2)c1` (configuration not stated) gave Ba CapD inh -0.065.
Screening CC(=O)On1ccc2ccc(S(C)(=O)=O)cc21 returned Ba CapD inh 2.1.
Screening Cc1cc(C)c2cc(C(=O)N3CCN(c4ncccc4C(F)(F)F)CC3)[nH]c2c1 returned AID504770 0.75 and Ba CapD inh 1.2.
For Cc1ccc2ncc(C(=O)N3CCN(c4ccccc4)CC3)c(=O)n2c1 the results were AID504770 -0.8 and Ba CapD inh 0.46.
For CC(C)OC(=O)C1=C(N)OC2=C(C(=O)CC(C)(C)C2)C12C(=O)Nc1ccccc12 (configuration not stated) the results were Ba CapD inh -0.71.
For O=C(CNCc1ccco1)Nc1cccc(OC(F)(F)F)c1 the results were AID504770 2.
CCn1c2ccccc2c2cc(NC3=NC(C)(C)CS3)ccc21 was read as AID504770 0.15.
`N#C/C(=C\c1cn(CC(=O)NCC2CCCO2)c2ccccc12)C(=O)N1CCCC1` (configuration not stated) gave AID504770 1.2.
Cc1ccc(N2CCN(C(=O)/C=C/c3ccc(OCCCF)cc3)CC2)c(C)c1 was read as Ba CapD inh -0.93.
Screening CCC(SC1=NCCS1)C(=O)Nc1nnc(-c2ccccc2OC)s1 (configuration not stated) returned AID504770 -0.1.
CCOc1cccc(=O)c2c(C)n(Cc3ccco3)c(C)c12 was read as AID504770 0.95 and Ba CapD inh 0.31.
CC(=O)OCC12COC(c3ccccc3OC(C)=O)C(C(C)=CC1C)C2C (configuration not stated) was read as Ba CapD inh -0.2.
`O=C(O)C1CCS(=O)(=O)C1` (configuration not stated) gave AID504770 -0.55.
Cc1cc(NC(=O)C(F)(F)F)n(-c2ccccc2)n1 was read as AID504770 -0.65 and Ba CapD inh -0.4.
For CCCCC(CC)COC1(c2ccccc2)OC(=O)c2ccccc21 (configuration not stated) the results were Ba CapD inh -0.42.
`C=CCNC(=S)N1CCc2c([nH]c3ccccc23)C1C(F)(F)F` (configuration not stated) gave AID504770 2.1 and Ba CapD inh -0.34.
`CC(=O)N=Nc1c2[nH]c3ccccc3nc-2c2ccccc12` gave AID504770 2 and Ba CapD inh -0.38.
`Brc1ccc(/C=C2/c3ccccc3-c3nc4ccccc4cc32)cc1` gave Ba CapD inh -0.11.
NC(=O)N/N=C/c1ccc(N2CCOCC2)cc1 was read as AID504770 -0.6.
Screening O=S(=O)(/C=C/c1ccccc1)N1CCN(Cc2coc(-c3cccs3)n2)CC1 returned AID504770 -0.9.
For Cc1cc(C)c(C(=O)CN2C(=O)NC(CC(C)C)C2=O)cc1C (configuration not stated) the results were AID504770 -0.5.
For Cc1cc(C)nc(N(C#N)Cc2ccccc2)n1 the results were AID504770 0.35.
`Cc1ccc(-c2csc(-c3nnn(-c4ccc(C)c(C)c4)c3N)n2)cc1` gave AID504770 2.6 and Ba CapD inh -0.48.
COc1cc(OC)nc(NC(=O)c2cc3cccc4c3n(c2=O)CCC4)n1 was read as Ba CapD inh -0.035.
For CCCN1C(=O)C[n+]2ccccc2C1C(=O)Nc1ccccc1C (configuration not stated) the results were AID504770 -1.6 and Ba CapD inh -0.72.
For N#Cc1ccc(Cl)cc1NC(=O)CSc1nnc(-c2ccc(OC(F)F)cc2)n1N the results were AID504770 0.55.
COc1ccc2c(c1)SC1=NC(=O)C(Cc3ccccc3)C(=O)N12 (configuration not stated) was read as AID504770 0.15 and Ba CapD inh 0.78.
For O=C1CC(Cc2ccccc2)C(=O)N1c1ccc(Cl)cc1 (configuration not stated) the results were AID504770 1.1 and Ba CapD inh -0.41.
Screening OC(CN1CCCCC1)Cn1c(-c2ccccc2)c(-c2ccccc2)c2ccc3ccccc3c21 (configuration not stated) returned Ba CapD inh 18.
Screening Clc1ccc(OCCN2CCCCC2)cc1 returned AID504770 1.4 and Ba CapD inh -0.6.
`O=C1ON=C(CSc2ccccc2)/C1=C/c1ccc(Cl)cc1` gave Ba CapD inh 0.31.
Screening Cc1nc2nc(CC(=O)N3CCC(C)CC3)nn2c(C)c1Cl returned AID504770 -0.05.
Screening O=c1c(C2CCCCC2)c(O)c2cccc3c2n1CCC3 returned AID504770 0 and Ba CapD inh -0.21.
Screening CCOC(=O)CSc1nc2c([nH]c3ccccc32)c(=O)n1-c1ccc(F)cc1 returned AID504770 -0.75 and Ba CapD inh 1.5.
c1ccc(COc2ccc(Oc3ncnc4c3oc3ccccc34)cc2)cc1 was read as AID504770 -0.15.
Screening COP1(=S)C2=C(N3CCCC3)CCCC2=NN1c1ccccc1 (configuration not stated) returned AID504770 0.05.
Screening CCN(C(=O)c1ccc2c(c1)OCO2)C12CC3CC(CC(C3)C1)C2 returned AID504770 -0.5.
Screening Cc1ccc(S(=O)(=O)N2CCCN(C)CC2)cc1 returned AID504770 -3.9* and Ba CapD inh 0.15.
CC(C)(C)OC(=O)NC(COC(=O)N1CCC(C(O)(c2ccccc2)c2ccccc2)CC1)CC1CCCCC1 (configuration not stated) was read as Ba CapD inh 0.2.
`O=C(NC(=S)Nc1c(Cl)cccc1Cl)c1ccccc1` gave Ba CapD inh 0.27.
`CC(C)(C)OC(=O)NCCNc1ccc(C(F)(F)F)cc1N1C(=O)CC2(CCCC2)C1=O` gave Ba CapD inh -0.27.
For O=C(Nc1nc(-c2ccccc2)cs1)c1cc(=O)c2ccccc2o1 the results were AID504770 0.85 and Ba CapD inh -0.045.
Screening CN(C)/N=C/c1ccc(OC(=O)c2ccc(Br)cc2)cc1 returned AID504770 1.3 and Ba CapD inh -0.91.
`COC(=O)c1sc2ccccc2c1NC(=O)c1ccc(S(=O)(=O)N(C)c2ccccc2)cc1` gave AID504770 -0.35 and Ba CapD inh -0.55.
Cc1ccc(C(=O)N/C(=C\c2ccco2)C(=O)N2CCCC2)cc1 was read as AID504770 -0.05 and Ba CapD inh -1.9.
For O=C(NN1CC(=O)N(C(c2ccccc2)c2ccccc2)C1=O)c1ccncc1 the results were AID504770 0.05.
Screening CC(C)(C)c1cc(NC(=O)Nc2ccc(Cl)cc2Cl)no1 returned AID504770 -0.55 and Ba CapD inh 0.39.
CCCc1cc(=O)[nH]c(/N=C(\N)Nc2cc(Cl)cc(Cl)c2)n1 was read as Ba CapD inh 2.1.
`CC1(C)Cc2c(sc(NC(=O)C(c3ccccc3)c3ccccc3)c2C#N)CO1` gave AID504770 -0.1 and Ba CapD inh 0.95.
Screening O=C(c1cc(F)cc2c1OCOC2)N1CCN(C2c3ccccc3-c3ccccc32)CC1 returned AID504770 -0.7 and Ba CapD inh -0.21.
`CCCCC1CCC(C(=O)N(Cc2sccc2C)C2CCS(=O)(=O)C2)CC1` (configuration not stated) gave AID504770 0.55 and Ba CapD inh -2.7.
For CCOC(=O)CSc1nc2sc(C(=O)OCC)c(C)c2c(=O)n1Cc1ccc2c(c1)OCO2 the results were Ba CapD inh 6.8.
`Cc1ccc(S(=O)(=O)N2CCC(C(=O)OC(C)C(=O)NCc3ccc4c(c3)OCO4)CC2)cc1` (configuration not stated) gave AID504770 -0.85.
For Cc1ccc(N2C(=O)/C(=C/c3ccc(Cl)cc3)C=C2c2ccccc2)cc1[N+](=O)[O-] the results were Ba CapD inh 0.35.
Screening CN(C)c1ccc(-c2ncnn2-c2ccccc2)cc1 returned AID504770 -0.05 and Ba CapD inh -2.8.
O=C(c1cccnc1)N1C(=O)c2cccc3c(S(=O)(=O)N4CCCCC4)ccc1c23 was read as AID504770 -0.3.
`CN(c1ccnc(C(=O)N2CCOCC2)c1)S(=O)(=O)c1ccccc1` gave AID504770 0.15 and Ba CapD inh -1.5.
CC(O)CNc1ncnc2scc(-c3ccccc3)c12 (configuration not stated) was read as AID504770 0.25 and Ba CapD inh -0.35.
CC(C)CNC(=O)C1C2C=CC(C2)C1C(=O)O (configuration not stated) was read as AID504770 -0.55.
`N#Cc1c(N2CCOCC2)nsc1-c1ccccc1Cl` gave AID504770 0 and Ba CapD inh 0.24.
`O=C(NC1CCCCC1)c1nnc(Cc2cccc(F)c2)o1` gave AID504770 -0.9 and Ba CapD inh -0.12.
Screening O=C1CCCCCN1Cc1nnc(SCc2cnc(-c3ccccc3)s2)n1-c1ccccn1 returned AID504770 0.15.
For CCC(Sc1nc2cc3c(cc2c(=O)n1Cc1ccco1)OCO3)C(=O)NCc1ccc(C)cc1 (configuration not stated) the results were AID504770 1.9 and Ba CapD inh -1.3.
COC(=O)CCCCCN1C(=O)/C(=C\c2cc(Br)c(O)c(OC)c2)SC1=S was read as Ba CapD inh 0.54.
For O=C(CCS(=O)(=O)c1ccccc1)OCc1csc(-c2ccccc2)n1 the results were AID504770 -0.1.
`Cc1onc(-c2ccccc2)c1C(=O)c1c[nH]c(C(=O)C(Cl)(Cl)Cl)c1` gave Ba CapD inh -0.85.
O=C(NNC(=O)c1ccc2nsnc2c1)OCCc1c[nH]c2ccccc12 was read as Ba CapD inh 0.24.
For COc1cccc(OC)c1C(=O)N[C@@H]1C(=O)N2[C@@H]1SC(C)(C)[C@@H]2C(=O)O the results were AID504770 0.1 and Ba CapD inh 0.15.
Screening O=C(CC(c1ccc(Cl)cc1)S(=O)(=O)c1ccccc1)c1ccco1 (configuration not stated) returned AID504770 -1.
Cc1ccc(NC(=O)CN(CCO)c2ccccc2)cc1 was read as AID504770 -0.2 and Ba CapD inh -0.88.
Screening O=C(c1ccc(Cl)cc1)N1CCc2c([nH]c3ccccc23)C1C(F)(F)F (configuration not stated) returned AID504770 -0.1 and Ba CapD inh 0.24.
For Cc1cc(=O)n2ccccc2c1C#N the results were AID504770 0.25.
Clc1ccc2c(N3CCN(c4ncccn4)CC3)ccnc2c1 was read as AID504770 0.15.
For Cc1c(C(=O)NCc2ccco2)sc2ncnc(N3CCN(c4ccccc4)CC3)c12 the results were Ba CapD inh -0.69.
`CCCCSc1nnc2c(n1)OC(c1cc3c(cc1Br)OCO3)Nc1ccccc1-2` (configuration not stated) gave Ba CapD inh 0.69.
Screening Cc1ncoc1C(=O)Nc1ccccc1F returned AID504770 0.2 and Ba CapD inh 4.1.
O=C(O)Cn1c(C(F)(F)F)nc2ccccc21 was read as AID504770 0.1 and Ba CapD inh 0.56.
For Cn1c(=O)c2c(nc(NC3CCCCC3)n2Cc2ccccc2Br)n(C)c1=O the results were Ba CapD inh 0.8.
Screening CN(C)C(Cc1ccc(Cl)cc1)C(=O)c1ccccc1 (configuration not stated) returned AID504770 -0.65.
`CCOC(=O)c1sc2nc(C)nc(N(C)Cc3ccccc3)c2c1C` gave AID504770 -0.85 and Ba CapD inh 3.
Screening O=C(Cn1cnc2ccccc21)NC1CCCC1 returned AID504770 1.1.
`O=C1NC(c2ccccc2)/C(=C(/O)c2ccc(Br)cc2)C1=O` (configuration not stated) gave Ba CapD inh -0.73.
Screening Cc1ccc(S(=O)(=O)NC2CCCCC2n2cc(-c3ccccc3)nn2)cc1 (configuration not stated) returned AID504770 1.3.
For COc1ccc(C2CC(c3c(C)cc(C)[nH]c3=O)=NN2c2ccccc2C)cc1 (configuration not stated) the results were Ba CapD inh 0.48.

Among those listed so far, 16 contain a Cl atom.
`COc1ccc(OC)c(C2C(N3C(=O)c4c(Cl)c(Cl)c(Cl)c(Cl)c4C3=O)C(=O)N2c2cccc(C(F)(F)F)c2)c1` (configuration not stated) gave Ba CapD inh -0.065.
For N#Cc1ccc(Cl)cc1NC(=O)CSc1nnc(-c2ccc(OC(F)F)cc2)n1N the results were AID504770 0.55.
For O=C1CC(Cc2ccccc2)C(=O)N1c1ccc(Cl)cc1 (configuration not stated) the results were AID504770 1.1 and Ba CapD inh -0.41.
Screening Clc1ccc(OCCN2CCCCC2)cc1 returned AID504770 1.4 and Ba CapD inh -0.6.
`O=C1ON=C(CSc2ccccc2)/C1=C/c1ccc(Cl)cc1` gave Ba CapD inh 0.31.
Screening Cc1nc2nc(CC(=O)N3CCC(C)CC3)nn2c(C)c1Cl returned AID504770 -0.05.
`O=C(NC(=S)Nc1c(Cl)cccc1Cl)c1ccccc1` gave Ba CapD inh 0.27.
Screening CC(C)(C)c1cc(NC(=O)Nc2ccc(Cl)cc2Cl)no1 returned AID504770 -0.55 and Ba CapD inh 0.39.
CCCc1cc(=O)[nH]c(/N=C(\N)Nc2cc(Cl)cc(Cl)c2)n1 was read as Ba CapD inh 2.1.
For Cc1ccc(N2C(=O)/C(=C/c3ccc(Cl)cc3)C=C2c2ccccc2)cc1[N+](=O)[O-] the results were Ba CapD inh 0.35.
`N#Cc1c(N2CCOCC2)nsc1-c1ccccc1Cl` gave AID504770 0 and Ba CapD inh 0.24.
`Cc1onc(-c2ccccc2)c1C(=O)c1c[nH]c(C(=O)C(Cl)(Cl)Cl)c1` gave Ba CapD inh -0.85.
Screening O=C(CC(c1ccc(Cl)cc1)S(=O)(=O)c1ccccc1)c1ccco1 (configuration not stated) returned AID504770 -1.
Screening O=C(c1ccc(Cl)cc1)N1CCc2c([nH]c3ccccc23)C1C(F)(F)F (configuration not stated) returned AID504770 -0.1 and Ba CapD inh 0.24.
Clc1ccc2c(N3CCN(c4ncccn4)CC3)ccnc2c1 was read as AID504770 0.15.
Screening CN(C)C(Cc1ccc(Cl)cc1)C(=O)c1ccccc1 (configuration not stated) returned AID504770 -0.65.

Source: PubChem BioAssay
